Assay outcomes as filed in PubChem.
Prx2 Sm inh: Schistosoma Mansoni Peroxiredoxins (Prx2); S. mansoni Prx2 activity coupled to TGR/GSH (TGR is thioredoxin glutathione reductase), NADPH fluorescence loss, qHTS; some inactives read as strong as hits; hit rate 0.07% among 65,000; Schistosoma mansoni peroxiredoxin 2 (Prx2); Potency, µM; active means full or partial inhibition curve with a strong effect at the top dose; inconclusive means weaker partial or single-point curve; inactive means no accepted curve; also: series up to 57 µM; many of its hits are not listed in these tables
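Enzyme mix: 100 uM NADPH, 25 nM TGR, 700 uM GSH, 50 nM Prx2 in 100 mM phosphate pH 7.4, 10 mM EDTA, 0.01% Tween-20. 15 min RT with compound; NADPH/GSH added, H2O2 starts reaction; NADPH fluorescence read 8 min.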
LT uptake inh: qHTS Assay for Anthrax Lethal Toxin Internalization; Cells, anthrax lethal toxin internalization, FRET ratio (460/530); Potency, µM (highest dose often 40 µM), without a hit: at the top dose activity change, negative = inhibition, actives largely listed as inhibitors; hit rate 0.67% among 70,000; active = well fitted falling ratio curve with the 530 nm signal flat; inconclusive = other ratio curves, or a change in one channel alone; inactive = flat curves in the ratio and both channels; the % refers to the ratio; also: % is scaled to controls: 0 for no effect and ±100 for the full control effect; nearly all actives have a fitted effect of over 50% in size; tested in ME-180 cells; beta-lactamase reporter
* hit, by the source's call; ? = inconclusive; nt = no result given; & = joins results of further samples; [ ] = another dose, or the depositor's remark. Potency is read from the fitted curve at half-maximal effect.

SMILES	Prx2 Sm inh	LT uptake inh
Nn1c(Cc2cccc3ccccc23)nnc1SCC(=O)NC1CCS(=O)(=O)C1 (centres undefined)	>57	-10%
CCOC(=O)N1CCC(NC(=O)C2CCCCN2S(=O)(=O)c2ccc(F)cc2)CC1 (centres undefined)	>57	10%
COc1ccccc1CCn1c(=O)c(-c2cn(C)c3ccccc23)nc2cncnc21	>57	?
Cc1nnc(SCc2cccc(Oc3ccccc3)c2)n1N	>57	3%
Cc1ccc(NC(=O)CSc2nnc(-c3ccncc3)n2C)cc1C	>57	-1%
COc1ccccc1C1CC(=O)NC(C)=C1C(=O)OCC1CCCO1 (centres undefined)	>57	-5%
CCOc1ccc(C2c3c(oc4ccccc4c3=O)C(=O)N2CCCN2CCOCC2)cc1 (centres undefined)	>57	18%
COCCN1C(=O)C(=O)/C(=C(/O)c2ccc(OC(C)C)cc2)C1c1cccnc1 (centres undefined)	>57	-2%
CC1(C)Cc2cccc(OCC(=O)N3CCN(S(=O)(=O)c4ccccc4)CC3)c2O1	>57	-4%
COc1cc2c(cc1OC)-c1nnnn1C(C)(C)C2	nt	-13%
CCOC(=O)COc1nc(C)c(Br)c(OC)n1	>57	-10%
Cc1cc2cc(CN(Cc3ccc4c(c3)OCO4)C(=O)c3ccco3)c(=O)[nH]c2cc1C	>57	-17%
CC(=O)N1CCC2(CC1)CCN(c1ccccc1)CC2	>57	8%
COC(=O)c1c(NC(=O)CN2CCCC(C)C2)c2c(C)cccc2n1C (centres undefined)	>57	?
CCN(Cc1ccccc1)C(c1cccs1)c1nnnn1C1CCCCC1 (centres undefined)	>57	-16%
COc1ccc(OCC(O)Cn2c(=N)n(Cc3ccccc3)c3ccccc32)cc1 (centres undefined)	>57	?
COc1ccc(S(=O)(=O)N2CCCC(C(=O)NCc3ccccn3)C2)cc1 (centres undefined)	>57	?
COc1cccc2[nH]c(-c3ccccn3)nc12	>57	-14%[8 µM]
CS(=O)(=O)N(CC(=O)NCc1ccccn1)Cc1ccc(Cl)cc1	>57	8%
CC[C@H](C)C(=O)O[C@@H]1CCC=C2C=C[C@H](C)[C@@H](CC[C@H]3C[C@@H](O)CC(=O)O3)[C@H]21	>57	6%
CSc1ncccc1C(=O)OCC(=O)NC(=O)NCCC(C)C	>57	3%
O=C(c1ccccc1F)N(Cc1ccccc1)C1CCS(=O)(=O)C1 (centres undefined)	>57	3%
C[C@]12C=CC(=O)C=C1CC[C@@H]1[C@@H]2C(=O)C[C@@]2(C)[C@H]1CC[C@]2(O)C(=O)CO	nt	?
Cc1cc(=O)oc(C)c1C(=O)NCc1ccc(F)cc1	>57	-3%
O=C1CSc2ccccc2N1Cc1ccc(F)cc1	>57	-14%
COc1ccc(-c2nnc(SCc3nnc(-c4ccccc4)o3)n2C)cc1OC	>57	-7%
CCNC(=O)C1CC(=O)N(Cc2ccc(F)cc2)C(=Nc2ccc(OC)cc2)S1 (centres undefined)	>57	2%
CCCN(CCC)C(=O)COc1cc(=O)n(CC)c2ccccc12	>57	-4%
C[C@@H](C(=O)O)c1ccc(-c2ccccc2)c(F)c1	>57&>57	?
O=C(CN(C(=O)CNS(=O)(=O)c1ccccc1)c1ccc2c(c1)OCCO2)NCc1ccco1	>57	7%
N#Cc1cn(Cc2cccc(Cl)c2)c2ccccc12	>57	?
CC(c1nnc(SCC(=O)Nc2ccc3[nH]c(=O)[nH]c3c2)n1Cc1ccccc1)N(C)C (centres undefined)	>57	-8%
O=C(Nc1ccccc1)Nc1ccc(S(=O)(=O)N2CCCCC2)cc1	>57	?
CCOC(=O)C1=C(C)N=C2SCCC(=O)N2C1c1cc(Br)ccc1OC (centres undefined)	>57	7%
Cc1ccc(C(=O)Nc2sc3c(c2C(=O)O)CCCCC3)o1	>57	5%
O=C(CN1CCC(O)(c2ccccc2F)CC1)NCCc1c[nH]c2ccccc12	>57	-17%
O=C(Nc1ccc(S(=O)(=O)N2CCCCCC2)cc1)C1CCCO1 (centres undefined)	>57	11%
O=C(CC1CC2CCC1C2)NCc1cccs1 (centres undefined)	>57	-7%
CCOC(=O)c1c(C)[nH]c(C(=O)O)c1C	>57	-4%
CCCCCC1CC(CC(C)C(=O)Nc2nncs2)C(=O)O1 (centres undefined)	>57	-22%
O=C(NCc1ccccc1)c1cc(S(=O)(=O)N2CCC3(CC2)OCCO3)ccc1F	>57	?
O=C1c2cccnc2C(O)N1Cc1ccco1 (centres undefined)	>57	2%
COCC(=O)N1CCC2(CC1)CCN(C(=O)Nc1cccc(F)c1)CC2	>57	3%
CCN(CC)CCN1C(=O)C(=O)/C(=C(/O)c2c(C)[nH]c(C(=O)OC)c2C)C1c1ccccc1OC (centres undefined)	>57	-8%
CSc1nnc2c3c4c(sc3c(=O)n(-c3ccccc3)n12)CC(C)(C)OC4	>57	?
Cn1c(=O)n(CCc2ccccc2)c(=O)c2c1nc1n2CCN1c1ccccc1	>57	-4%
Cc1ccc(Cn2nnc3c(=O)[nH]c(C4CCN(S(=O)(=O)c5ccc(F)cc5)CC4)nc32)cc1	>57	-9%
CC(=O)NC(C)C(c1cccs1)N1CCN(c2ccccc2)CC1 (centres undefined)	>57	?
O=C(c1c(Cl)nc2sccn12)N1CCN(c2cccc(Cl)c2)CC1	>57	-25%
Cc1cccc(CNc2cc(-c3ccc(N(C)C)cc3)ncn2)c1	>57	-6%
CSc1nc(N)c(C#N)c(-c2ccc(Cl)cc2)c1C#N	>57	?
Cc1c[nH]c(=O)n(CCCN2CCN(c3ccccc3OCC(F)(F)F)CC2)c1=O	>57	?
Cn1c(=O)n(C)c2cc(CNc3ccc(N4CCOCC4)c(C(=O)O)c3)ccc21	>57	16%
Cc1cc(C)n2nc(SCC(=O)Nc3ccc(F)cc3)nc2n1	?	-1%
C=CCn1c(SCC(=O)Nc2ccc3c(c2)OCO3)nnc1-c1ccccc1O	>57	-7%
Cn1c(=O)c2c(-c3ccccc3)n(N3CCOCC3)cc2n(C)c1=O	>57	-10%
CCC1(C)Cc2c(sc3nc(NC)n(C)c(=O)c23)CO1 (centres undefined)	>57	-14%
COc1cccc(-c2n[nH]c(=S)n2Cc2ccco2)c1OC	>57	1%
Cc1ccc(S(=O)(=O)N2CCOCC2)cc1C(=O)Nc1ccccn1	>57	-10%
O=C(Cn1c(C(=O)NCc2ccco2)cc2sccc21)c1ccccc1	>57	9%

Continuation:
SMILES	Prx2 Sm inh	LT uptake inh
O=C(CCn1nnc2ccccc21)N1CCC(O)(c2cccc(F)c2)CC1	>57	10%
CC1CCN(C(=O)Nc2cccc(NC(=O)N3CCC(C)CC3)c2)CC1	>57	0%
CC(=O)N1CCN(c2ccc(NC(=O)c3ccc4c(c3)OCCO4)cc2)CC1	>57	14%
COCCCNC(=O)CS(=O)Cc1nc(-c2ccccc2C)oc1C (centres undefined)	>57	-3%
Nn1c(SCC(=O)Nc2ccc3c(c2)OCO3)nnc1C1CCCCC1	>57	-2%
CCOC(=O)C1CCN(S(=O)(=O)c2cnc[nH]2)CC1	>57	1%
Nc1c(NCCCN2CCOCC2)c2ccccc2oc1=O	>57	-8%
CC(C)COc1ccc(C(=O)OCCN2CCOCC2)cc1	>57	-2%
Cn1c(CNc2ccccc2O)nc2ccccc21	>57	-18%
Cn1c(=O)c2cc(NC(=O)c3ccccc3Cl)c(=O)oc2n(C)c1=O	>57	-9%
COc1ccc(Cn2nc(C)cc2C)cc1OC	>57	2%
O=C(O)COc1ccccc1	nt	2%

4 structures already listed, arranged by heavy-atom count, high to low.
SMILES	Prx2 Sm inh	LT uptake inh
CC(=O)N1CCN(c2ccc(NC(=O)c3ccc4c(c3)OCCO4)cc2)CC1	>57	14%
COCCCNC(=O)CS(=O)Cc1nc(-c2ccccc2C)oc1C (centres undefined)	>57	-3%
CC(C)COc1ccc(C(=O)OCCN2CCOCC2)cc1	>57	-2%
O=C(O)COc1ccccc1	nt	2%

(continued)
SMILES	Prx2 Sm inh	LT uptake inh
COc1ccccc1N1CCN(C(=O)CCc2ccc(S(=O)(=O)NCC(C)C)cc2)CC1	>57	-16%
Cc1ccccc1NC(=O)c1c(O)c2cccc3c2n(c1=O)CC3	>57	-19%
Cc1nc2ccc(S(=O)(=O)NC(C(=O)Nc3nccs3)C(C)C)cc2s1 (centres undefined)	>57	-11%
COc1cc(NC(=O)c2cc(-c3ccco3)on2)c(OC)cc1Cl	>57	-2%
CN1CCN(c2nc3c(c(=O)[nH]c(=O)n3C)n2CC(N)=O)CC1	>57	-6%
Cc1cc(N2CCCCCC2)nc(-c2ccccc2O)n1	>57	-8%
CCn1c(CC(=O)Nc2ccccc2)nnc1SCC(=O)Nc1ccccc1C(=O)OC	>57	1%
COC(=O)NC(/C(C(=O)OC)=C(\C)NCc1ccccc1)c1cccc(C)c1 (centres undefined)	nt	-4%[8 µM]
CCOC(=O)N1CCN(C(=O)CCCn2c(=O)[nH]c3ccccc3c2=O)CC1	>57	-1%
O=C(CCn1nc(-c2ccccc2)ccc1=O)N1CCOCC1	>57	?
CCNc1cc(O)ccc1C	nt	1%
O=C(c1ccc(Cl)cc1Cl)N1CCC(c2nc3c(nnn3Cc3ccco3)c(=O)[nH]2)CC1	>57	?
Cn1nnnc1SCc1ccc(F)cc1	nt	5%
COc1ccc2c3c1O[C@H]1C[C@H](O)C=C[C@@]31CCN(C)C2	>57&>57&>57	?
CCOC(=O)C1C(c2cccc(Cl)c2Cl)NC(=O)NC1(O)C(F)(F)F (centres undefined)	nt	-15%
CC(C)CO/N=C1/C[C@@H](O)[C@@H](O)[C@@H]2[C@@H]3C(=O)N(C4CCCCC4)C(=O)[C@H]3CC[C@@H]12	nt	3%[8 µM]
Cc1ccc(C(=O)NCC2CCCO2)o1 (centres undefined)	>57	0%
Cc1ccc(NC(=O)CCC(=O)OCC(F)(F)C(F)F)cc1	nt	-9%
CCC(C)C(N)C(=O)NC(CCC(=O)OCc1ccccc1)C(N)=O (centres undefined)	>57	17%
COc1ccc(C(c2nnnn2C2CCCCC2)N2CCN(c3ccc(OC)cc3)CC2)cc1 (centres undefined)	>57	11%
C=CCn1c(SCC(=O)Nc2ccc(NC(=O)c3ccco3)c(OC)c2)nnc1-c1ccncc1	>57	-8%
Cc1cccc2cc(CN(CCc3ccccc3)C(=O)N3CCOCC3)c3nnnn3c12	>57	?
O=C(COc1ccc(Cl)cc1)NCc1nnc(SCC(=O)NCc2ccc3c(c2)OCO3)o1	nt	0%
COc1ccc(OC)c(-c2cc(C(=O)NCCCn3ccnc3)no2)c1	>57	-9%

Nothing new here: 6 of the compounds above.
SMILES	Prx2 Sm inh	LT uptake inh
Cn1nnnc1SCc1ccc(F)cc1	nt	5%
COc1ccc2c3c1O[C@H]1C[C@H](O)C=C[C@@]31CCN(C)C2	>57&>57&>57	?
CCOC(=O)C1C(c2cccc(Cl)c2Cl)NC(=O)NC1(O)C(F)(F)F (centres undefined)	nt	-15%
CC(C)CO/N=C1/C[C@@H](O)[C@@H](O)[C@@H]2[C@@H]3C(=O)N(C4CCCCC4)C(=O)[C@H]3CC[C@@H]12	nt	3%[8 µM]
Cc1ccc(C(=O)NCC2CCCO2)o1 (centres undefined)	>57	0%
Cc1ccc(NC(=O)CCC(=O)OCC(F)(F)C(F)F)cc1	nt	-9%

Next section
SMILES	Prx2 Sm inh	LT uptake inh
CCc1nnc(NC(=O)CSc2nnc(-c3ccncc3)n2Cc2ccccc2)s1	>57	8%
O=C(CSCCO)Nc1cc(C(F)(F)F)ccc1Cl	>57	?
COc1cccc(C2CC(=O)Nc3c2c(=O)n(C)c(=O)n3C)c1OC (centres undefined)	>57	3%
Cn1c(CCNC(=O)c2cccs2)nnc1SCC(=O)Nc1nc(-c2ccccc2)cs1	>57	0%
CCn1nnnc1SCC(=O)Nc1nnc(C(C)C)s1	>57	-11%
CCOC(=O)CSc1nnc(CNC(=O)c2ccc(S(=O)(=O)N3CCCC3)cc2)n1C	>57	?
COc1cc(C(=O)Nc2ccc3c(c2)OCCO3)c(-n2cnnn2)cc1OC	>57	15%
N#CC1=C(N)C(C#N)(C#N)[C@H](c2ccsc2)[C@H]2COCC=C12	>57	-9%
COc1ccc(-c2nc3cccc(C)n3c2NCc2ccco2)cc1OC	>57	-13%
COC(=O)Nc1nnc(-c2ccncc2)s1	>57	-6%
O=C(Nc1cccc(-c2nc3cccnc3s2)c1)c1ccco1	>57	-11%
COC(=O)c1[nH]c2ccc(Cl)cc2c1NC(=O)CN1CCc2cc(OC)c(OC)cc2C1	>57	-6%
CCCNC(=O)c1n[nH]c(=O)c2ccccc12	>57	-2%
O=C(O)c1ccc(OCC(O)Cn2cnc3ccccc32)cc1 (centres undefined)	>57	1%
COCCn1c(=O)c(CCc2ccccc2)nc2cnc(Nc3cccc(OC)c3)nc21	>57	?
Cc1cc(N(C)C)c(C#N)c(N2CCCCC2)n1	>57	4%
Nc1ccc(C23CC4CC(CC(O)(C4)C2)C3)cc1	>57	11%
c1ccc2c(c1)-c1nc3ccccc3cc1[C@H]2N1CCOCC1	>57	0%[8 µM]
CCn1c(=O)cc(OCC(=O)Nc2ccc3c(c2)OCCO3)c2ccccc21	>57	6%
Cc1ccc2oc(=O)c3cc(C(=O)N4CCN(c5ncccn5)CC4)sc3c2c1	>57	-16%
CC(=O)N1CCC2(CCCN(Cc3ccccc3)C2)CC1	>57	2%

Single values from the results shown.
COCCn1c(=O)c(CCc2ccccc2)nc2cnc(Nc3cccc(OC)c3)nc21 | Prx2 Sm inh = >57
COC(=O)NC(/C(C(=O)OC)=C(\C)NCc1ccccc1)c1cccc(C)c1 (centres undefined) | LT uptake inh = -4%[8 µM]

Not all compounds are listed. The share of hits here may be higher or lower than overall.
